DUX4 txn inh: blocks DUX4-driven transcriptional activation. 293T-iDUX4 ZSCAN4-Gaussia luciferase reporter, 24 h; hits give low values. activity change, negative = inhibition, % (no concentration beside the values). actives 0.8% (n = 37,000). AID 1224904;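 active means -10% or lower and over 25 points stronger than a control reporter; inconclusive means -10% or lower with a smaller gap; inactive means above -10%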;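 further: 0% = median of neutral control wells and -100% = median of positive control wells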
DUX4 txn inh difference: further read-out of DUX4 txn inh, marked with its call; Gaussia minus Italica difference, %; measured here: selective DUX4 reporter inhibition;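 worked out from the two reporters; negative = selective loss of the DUX4 reporter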
DUX4 txn inh control: further read-out of DUX4 txn inh, marked with its call; activity change, negative = inhibition, %; measured here: Italica tet-on control reporter;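 0 = neutral control and -100 = positive control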
The depositor's hits bear a star; ? = inconclusive; / = not tested or not shown. Only part of the results is shown, so the mix of outcomes need not match the whole.

SMILES | DUX4 txn inh | DUX4 txn inh difference | DUX4 txn inh control
COc1ccc2c3c(n(C)c2c1)[C@@H](CO)N(Cc1ccncc1)CC31CN(C(=O)C2CCCCC2)C1 | 11.8 | 4.0 | 7.8
CN(C)C(=O)c1ccc(-c2ccc([C@@H]3[C@H](C#N)N(C(=O)C4CCC4)[C@H]3CO)cc2)cc1 | 1.2 | 3.5 | -2.3
O=C1CN(S(=O)(=O)c2ccccc2)C[C@H]2[C@H](c3ccc(Br)cc3)[C@@H](CO)N12 | -2.2 | 2.9 | -5.1
O=C(Nc1ccc2c(c1)[C@@H]1C[C@H](CC(=O)N3CCc4ccccc4C3)O[C@H](CO)[C@@H]1O2)c1cccnc1 | 0.7 | 1.1 | -0.5
C[C@@H]1CN([C@H](C)CO)C(=O)CCCn2cc(nn2)CO[C@@H]1CN(C)C(=O)Nc1cccc(C(F)(F)F)c1 | 4.2 | 4.1 | 0.1
O=C(C[C@@H]1C[C@H]2c3cc(NC(=O)C4CCOCC4)ccc3O[C@H]2[C@@H](CO)O1)NCC(F)(F)F | 6.0 | 3.6 | 2.4
COc1ccccc1S(=O)(=O)N1CC[C@H]2[C@H](CO)Nc3ccc(-c4ccccc4)cc3[C@H]21 | ? | / | /
C[C@@H]1CN([C@H](C)CO)C(=O)CCCn2cc(nn2)CO[C@H]1CN(C)Cc1cccc(O)c1 | 11.5 | 9.4 | 2.1
O=C(C[C@@H]1C[C@@H]2c3cc(NS(=O)(=O)c4ccc(F)cc4)ccc3O[C@@H]2[C@H](CO)O1)NCCN1CCCCC1 | 4.6 | 2.1 | 2.4
CN(C)C(=O)c1cccc(-c2ccccc2[C@@H]2[C@H](C#N)N(C(=O)C3CC3)[C@H]2CO)c1 | 7.5 | 3.1 | 4.4
CC=Cc1ccc2n(c1=O)C[C@@H]1[C@@H](CO)[C@H](C(=O)NCCC)N(Cc3cocn3)[C@H]21 (mixture of isomers) | 4.2 | -3.5 | 7.7
CCNC(=O)C[C@H]1CC[C@@H]2[C@H](COC[C@H](O)CN2C(=O)c2cccnc2)O1 | 12.2 | 6.8 | 5.4
O=C(C[C@@H]1C[C@@H]2c3cc(NC(=O)c4ccc5c(c4)OCO5)ccc3O[C@@H]2[C@@H](CO)O1)NCCN1CCCCC1 | -5.0 | -3.4 | -1.6
COc1ccc(NC(=O)N2CC(=O)N3[C@H](C2)[C@@H](c2ccc(C4=CCCC4)cc2)[C@@H]3CO)cc1 | -8.3 | -3.9 | -4.4
O=C(Nc1cccc(F)c1)N1C[C@H]2[C@@H](c3ccccc31)[C@@H](CO)N2C(=O)C1CCOCC1 | 3.5 | 1.4 | 2.1
OC[C@H]1[C@@H](c2ccc(-c3cncnc3)cc2)[C@@H]2CN(CC3CCOCC3)CCCCN12 | 11.7 | 6.3 | 5.3
C[C@H]1CN([C@@H](C)CO)C(=O)CCCn2nncc2CO[C@H]1CN(C)Cc1ccc(C(F)(F)F)cc1 | ? | / | /
CN1C(=O)c2cc(NC(=O)C3CC3)ccc2OC[C@H]2O[C@@H](CC(=O)NCc3cccc(F)c3)CC[C@H]21 | 0.1 | -3.5 | 3.6
O=C(Nc1ccc(F)cc1)N1CC(=O)N2[C@@H](CO)[C@@H](c3ccc(-c4cccc(F)c4)cc3)[C@@H]2C1 | 2.7 | 14.4 | -11.7
COc1cccc(-c2ccc3c(c2)[C@H]2[C@H](CCN2S(=O)(=O)c2cccc(OC)c2)[C@@H](CO)N3)c1 | ? | / | /
COCC(=O)NC[C@@H]1[C@@H](c2ccc(C3=CCCC3)cc2)[C@@H](CO)N1C(C)=O | 1.2 | -0.8 | 2.0
N#C[C@@H]1[C@H](c2ccccc2C2=CCCCC2)[C@@H](CO)N1C(=O)c1ccccn1 | -5.8 | 2.5 | -8.3
COc1ccc(CN(C)C[C@H]2OCCCC[C@H](C)Oc3ccc(NS(C)(=O)=O)cc3C(=O)N([C@H](C)CO)C[C@@H]2C)cc1 | 1.1 | 2.6 | -1.5
COc1ccc2c3c([nH]c2c1)[C@H](CO)N(C(=O)C1CCCCC1)CC31CN(Cc2nccs2)C1 | 0.9 | -1.6 | 2.5
CCCC(=O)Nc1ccc2c(c1)C(=O)N(C)[C@H]1CC[C@@H](CC(=O)NCc3cccc(F)c3)O[C@@H]1CO2 | -2.5 | -1.8 | -0.7

Sorted by value in DUX4 txn inh (smallest number first): 4 from the list above
SMILES | DUX4 txn inh | DUX4 txn inh difference | DUX4 txn inh control
CN1C(=O)c2cc(NC(=O)C3CC3)ccc2OC[C@H]2O[C@@H](CC(=O)NCc3cccc(F)c3)CC[C@H]21 | 0.1 | -3.5 | 3.6
COc1ccc2c3c([nH]c2c1)[C@H](CO)N(C(=O)C1CCCCC1)CC31CN(Cc2nccs2)C1 | 0.9 | -1.6 | 2.5
CN(C)C(=O)c1ccc(-c2ccc([C@@H]3[C@H](C#N)N(C(=O)C4CCC4)[C@H]3CO)cc2)cc1 | 1.2 | 3.5 | -2.3
O=C(C[C@@H]1C[C@@H]2c3cc(NS(=O)(=O)c4ccc(F)cc4)ccc3O[C@@H]2[C@H](CO)O1)NCCN1CCCCC1 | 4.6 | 2.1 | 2.4

Further compounds.
SMILES | DUX4 txn inh | DUX4 txn inh difference | DUX4 txn inh control
COc1ccc(NC(=O)N(C)C[C@@H]2Oc3c(NC(=O)CCCCCC(=O)Nc4ccccc4N)cccc3C(=O)N([C@@H](C)CO)C[C@@H]2C)cc1 | -4.5 | -3.2 | -1.3
COc1ccccc1-c1ccc2n(c1=O)C[C@H]1[C@H](CO)[C@@H](C(=O)N3CCOCC3)[C@@H]2N1CC1CC1 | 14.7 | 9.0 | 5.7
O=C(C[C@@H]1C[C@H]2c3cc(NC(=O)C4CCOCC4)ccc3O[C@H]2[C@H](CO)O1)NCCN1CCCCC1 | -2.4 | -4.4 | 2.0
C[C@H](NC(=O)C[C@@H]1C[C@@H]2c3cc(NC(=O)Nc4ccc(C(F)(F)F)cc4)ccc3O[C@@H]2[C@H](CO)O1)c1ccccc1 | -5.7 | -3.2 | -2.4
COc1ccc2c3c(n(C)c2c1)[C@H](CO)N(C(C)=O)CC31CN(Cc2nccs2)C1 | 16.1 | 13.7 | 2.3
C/C=C/c1ccc([C@@H]2[C@@H](CO)N(C(=O)CC)[C@H]2CN(C)S(C)(=O)=O)cc1 | -1.1 | 0.2 | -1.3
CO[C@H]1CN(C)C(=O)c2ccc(NC(=O)c3cc(C)on3)cc2OC[C@@H](C)NC[C@@H]1C | 0.0 | -3.6 | 3.6
COc1ccc2c3c([nH]c2c1)[C@H](CO)N(C(=O)NC(C)C)CC31CCN(Cc2ccccc2)CC1 | 2.3 | 2.4 | -0.1
C[C@H](CO)N1C[C@H](C)[C@H](CN(C)S(=O)(=O)c2ccccc2)Oc2cc(-c3cccc(F)c3)ccc2S1(=O)=O | 3.9 | -0.3 | 4.1
C[C@@H]1CN([C@H](C)CO)C(=O)CCCn2cc(nn2)CO[C@H]1CN(C)S(=O)(=O)c1ccc2c(c1)OCCCO2 | 2.1 | 5.0 | -2.9
O=C(c1ccccc1F)N1CC(=O)N2[C@H](CO)[C@@H](c3ccc(-c4ccc(F)cc4)cc3)[C@H]2C1 | ? | / | /
CCCNC(=O)N1C[C@@H](O)COC[C@@H]2O[C@H](CC(=O)OC)CC[C@H]21 | 7.2 | 10.9 | -3.7
CCCNC(=O)N1CC2(CCN(C(=O)C3CCOCC3)CC2)c2c([nH]c3cc(OC)ccc23)[C@@H]1CO | 29.6 | 15.0 | 14.6
C[C@H]1CN([C@@H](C)CO)C(=O)CCCn2nncc2CO[C@H]1CN(C)Cc1ccncc1 | -0.3 | -3.6 | 3.3
C[C@@H]1CCCCO[C@@H](CN(C)C(=O)Nc2ccccc2)[C@@H](C)CN([C@@H](C)CO)C(=O)c2cc(NC(=O)Nc3ccccc3)ccc2O1 | -0.1 | 0.9 | -0.9
COc1ccc(S(=O)(=O)Nc2ccc3c(c2)CC(=O)N([C@@H](C)CO)C[C@H](C)[C@H](CN(C)S(=O)(=O)c2cn(C)cn2)O3)cc1 | -0.9 | -1.1 | 0.2
Cc1cc(C(=O)Nc2ccc3c(c2)C(=O)N(C)[C@@H]2CC[C@@H](CC(=O)NCc4ccc(-c5ccccc5)cc4)O[C@@H]2CO3)no1 | -2.7 | 1.8 | -4.5
CN1c2ccc(Br)cc2[C@H]2[C@H](CCN2S(=O)(=O)c2ccccc2F)[C@@H]1CO | 8.8 | 8.3 | 0.5
CC=Cc1ccc2n(c1=O)C[C@@H]1[C@@H](CO)[C@H](C(=O)N3CCCCC3)N(Cc3ccccc3)[C@H]21 (mixture of isomers) | 3.6 | 6.1 | -2.5
C[C@H](CO)N1C[C@H](C)[C@@H](CN(C)S(=O)(=O)c2cccc(C#N)c2)OCc2ccccc2-c2ccccc2C1=O | 2.2 | -1.0 | 3.2
CC=Cc1ccc2n(c1=O)C[C@@H]1[C@@H](CO)[C@H](C(=O)NCCC)N(C(=O)CC)[C@H]21 (mixture of isomers) | 2.4 | -1.0 | 3.5
COc1ccccc1NC(=O)N1CC[C@H]2[C@@H]1c1cc(-c3ccc(F)cc3)ccc1N(C)[C@H]2CO | -2.5 | -1.4 | -1.2
NCC[C@@H]1CC[C@@H](NC(=O)Cc2ccncc2)[C@H](CO)O1 | 3.2 | -4.9 | 8.2
CN(C)CCCNC(=O)[C@@H]1[C@@H](CO)[C@@H]2Cn3c(ccc(-c4cccc(F)c4)c3=O)[C@@H]2N1C | -3.0 | -13.6 | 10.6
COCC(=O)Nc1ccc2c(c1)[C@H]1C[C@H](CC(=O)N[C@H](C)c3ccccc3)O[C@H](CO)[C@H]1O2 | 11.8 | 8.3 | 3.4

Part of the list above, showing only DUX4 txn inh difference.
molecule,DUX4 txn inh difference
CN1c2ccc(Br)cc2[C@H]2[C@H](CCN2S(=O)(=O)c2ccccc2F)[C@@H]1CO,8.3
C[C@@H]1CN([C@H](C)CO)C(=O)CCCn2cc(nn2)CO[C@H]1CN(C)S(=O)(=O)c1ccc2c(c1)OCCCO2,5.0
C[C@H]1CN([C@@H](C)CO)C(=O)CCCn2nncc2CO[C@H]1CN(C)Cc1ccncc1,-3.6

(continued)
SMILES | DUX4 txn inh | DUX4 txn inh difference | DUX4 txn inh control
COc1cccc(S(=O)(=O)N2CCCCN3[C@H](CO)[C@H](c4ccc(C#CC5CC5)cc4)[C@@H]3C2)c1 | -0.8 | -6.3 | 5.5
O=C(C1CC1)N1[C@@H](CO)[C@@H]2c3ccccc3N(S(=O)(=O)c3ccc(F)cc3)C[C@@H]21 | 2.8 | 2.3 | 0.5
CC(C)COC(=O)N(C)C[C@@H]1OCc2ccccc2-c2c(n(C)c3ccccc23)C(=O)N([C@H](C)CO)C[C@@H]1C | ? | / | /
CCN1[C@@H]2c3ccc(-c4ccccc4F)c(=O)n3C[C@H]1[C@H](CO)[C@H]2C(=O)N1CCOCC1 | 2.5 | 1.7 | 0.8
CO[C@H]1CN(C)C(=O)c2ccc(NC(=O)NC(C)C)cc2OC[C@@H](C)N(C(=O)NC(C)C)C[C@@H]1C | -1.0 | -5.8 | 4.8
Cc1ccc(S(=O)(=O)N2CC[C@@H]3[C@@H](CO)N(C)c4ccc(-c5ccc(C#N)cc5)cc4[C@@H]32)cc1 | ? | / | /
CC(C)NC(=O)N1CCCCN2[C@@H](CO)[C@@H](c3ccc(C#Cc4ccccc4F)cc3)[C@@H]2C1 | ? | / | /
CO[C@@H]1CN(C)C(=O)c2ccc(NC(=O)c3cccc(Oc4ccccc4)c3)cc2OC[C@H](C)NC[C@H]1C | ? | / | /
C[C@@H]1CCCCO[C@H](CN(C)Cc2ccccc2)[C@@H](C)CN([C@@H](C)CO)C(=O)c2cc(NC(=O)Nc3ccc(F)cc3)ccc2O1 | 0.7 | -2.6 | 3.3
COc1cccc(-c2ccc3c(c2)[C@@H]2[C@@H](CCN2S(=O)(=O)c2cn(C)cn2)[C@H](CO)N3)c1 | 22.6 | 19.9 | 2.6
C[C@H]1CN([C@@H](C)CO)C(=O)c2cc(C#CC3(O)CCCC3)cnc2O[C@@H]1CN(C)C(=O)Nc1ccc2c(c1)OCO2 | -3.2 | -0.7 | -2.5
COc1ccccc1-c1ccc([C@@H]2[C@@H](C#N)N(C(=O)c3cccnc3)[C@@H]2CO)cc1 | -2.3 | -1.9 | -0.4
O=C(C[C@H]1CC[C@@H]2[C@H](COC[C@H](O)CN2Cc2ccccc2)O1)N1CCOCC1 | 6.5 | 4.4 | 2.1
COc1ccc2c3c([nH]c2c1)[C@@H](CO)N(C)CC31CCN(S(=O)(=O)c2cn(C)cn2)CC1 | 15.0 | 7.3 | 7.7
CC(C)NC(=O)N1CCCCN2[C@H](CO)[C@H](c3ccc(C#C[C@@H](C)O)cc3)[C@@H]2C1 | 12.6 | -1.1 | 13.6
C[C@H]1CN([C@@H](C)CO)C(=O)CCCn2nncc2CO[C@H]1CN(C)Cc1cccnc1 | 3.5 | 7.3 | -3.8
CC=Cc1ccc2n(c1=O)C[C@@H]1[C@@H](CO)[C@H](C(=O)NCc3ccc4c(c3)OCO4)[C@H]2N1C(C)=O (mixture of isomers) | 1.5 | -4.7 | 6.2
N#C[C@@H]1[C@H](c2ccc(-c3cccc(F)c3)cc2)[C@@H](CO)N1c1nc(-c2ccccc2)cs1 | 0.4 | -3.8 | 4.2
O=S(=O)(c1ccccc1)N1CC2(C1)[C@@H](c1ccccc1)[C@@H](CO)N2CC1CC1 | -5.3 | -0.1 | -5.2
C[C@H]1CN([C@@H](C)CO)C(=O)c2c(c3ccccc3n2C)-c2ccccc2CO[C@H]1CN(C)S(=O)(=O)c1cn(C)cn1 | 12.7 | 13.2 | -0.5
O=C(C[C@@H]1CC[C@@H](NS(=O)(=O)c2ccc(F)cc2)[C@H](CO)O1)NCCc1ccncc1 | -0.4 | 2.7 | -3.1
CCCN(C[C@H]1N[C@H](CO)[C@@H]1c1ccccc1)C(=O)COC | -1.1 | -1.5 | 0.4
CO[C@@H](CN(C)C(=O)c1cc(Cl)cc(Cl)c1)[C@@H](C)CN(C(=O)Nc1ccc(F)cc1)[C@@H](C)CO | 1.0 | 1.2 | -0.2
CN1C[C@@H]2[C@H](c3ccccc31)[C@@H](CO)N2C(=O)Nc1ccc(F)cc1 | -2.2 | -1.7 | -0.5

From PubChem BioAssay
